# KSHV LANA nucl: inhibitors of KSHV LANA-nucleosome binding, primary screen, biochemical, fluorescence polarization, FITC-LANA1-23, chicken nucleosomes | FITC-LANA1-23 / chicken nucleosome fluorescence polarization; active compounds read low | z-score (no concentration beside the values) | hit rate 0.3% among 51,000 | AID 720717, 2013;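 active = both repeat wells score below -2 in polarization z-score versus plate sample wells, excluding overly bright wells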;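 note: 100 nL library stock added to about 30 µL; numbers are from one replicate; some results filed as inactive read as strong as hits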
#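 System – purified chicken nucleosomes with FITC-labelled LANA N-terminal peptide (1-23) · Amount – 240 nM purified chicken nucleosomes (480 nM peptide binding sites), final · Also added – 50 nM FITC-LANA1-23 probe · Medium – TEN-BT buffer, pH 7.5 · Incubation – compound with peptide–nucleosome mix 10–45 min at room temperature · Detection – fluorescence polarization, ex 480 nm, em 535 nm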
# Ab BasE inh: BasE siderophore enzyme inhibitors, primary screen, biochemical, Acinetobacter baumannii ATCC 17978, fluorescence polarization. hit rate 0.1% among 84,000. inhibition, % (no concentration beside the values). purified BasE, fluorescence polarization binding displacement. AID 485350, 2010;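 active = both replicates above 25% with normal brightness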;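 note: 0% = negative plate control signal and 100% = positive plate control signal; stock transfer was 100 nL into about 30 µL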
# * hit, by the source's call; nt = not tested or not shown; & = joins results of further samples. The list is partial; rates above refer to the full screens.
SMILES	KSHV LANA nucl	Ab BasE inh
O=C(Oc1cccc2cccnc12)c1cc(C(F)(F)F)cc(C(F)(F)F)c1	nt	42*
CC(C)CCn1c(=O)c2sccc2n2c(CCCC(=O)NC3CC3)nnc12	0.94	0.0
Cc1cc(=O)oc2cc(OCC(=O)N(c3ccccc3)C(C)C)ccc12	nt	1.6
Nc1cc(=O)[nH]c(SCC(=O)Nc2ccccc2)n1	-0.14	0.6
N#Cc1c(N2CCN(C(=S)NCc3ccccc3)CC2)nc(-c2ccccc2)c2c1CCCC2	nt	0.7
O=C1Cc2cc(C(=O)CSc3nnc(C4CC4)n3-c3ccccc3)ccc2N1	nt	-0.4
Cc1onc(-c2ccccc2Cl)c1C(=O)Nc1ccc(S(=O)(=O)N2CCC(C)CC2)cc1	nt	3.2
COc1cc(C=Nc2ccc(O)cc2)ccc1OC(=O)CC1SC(=O)NC1=O (stereo not given)	nt	5.6
O=C(NCC(c1ccco1)N1CCN(c2ccccc2)CC1)c1ccccc1 (stereo not given)	-0.59	-0.4
CC(=O)Oc1ccc(-c2nc3cc(Cl)ccc3o2)cc1	0.6	-2.0
CN1C2CCC1CC(NS(=O)(=O)c1cccc(C(F)(F)F)c1)C2 (stereo not given)	0.59	nt
CSc1ccc(NS(=O)(=O)c2ccc(-n3cnnn3)cc2)cc1	-0.76	2.0
CCCN1COc2ccc3c(C)cc(=O)oc3c2C1	0.55	1.4
CCCN(CCC)S(=O)(=O)c1ccc(CC)cc1	-0.75	0.2
Cc1nc2c(cc1C(=O)N/N=C/c1c[nH]c3ccccc13)c(=O)n(C)c(=O)n2C	-0.42	-0.6
COc1ccc(OCCC(=O)Nc2ccc3[nH]c(=O)[nH]c3c2)cc1	nt	-5.2
CCc1c(O)nc(SCc2ccccc2)n(C2CCCCC2)c1=O	0.045	-2.1
N#CCn1c(CSc2nc3ccccc3c(=O)n2CCC2=CCCCC2)nc2ccccc2c1=O	nt	-2.2
CC(C)(SC1CC(=O)N(c2ccccc2)C1=O)C(N)C(=O)O (stereo not given)	0.057	-1.4
FC(F)(F)c1cccc(C=NCc2ccc(-c3cccs3)s2)c1	nt	0.0

# Some of the entries above in another layout:
Structure: CSc1ccc(NS(=O)(=O)c2ccc(-n3cnnn3)cc2)cc1
  KSHV LANA nucl: -0.76; Ab BasE inh: 2.0

Structure: CCCN1COc2ccc3c(C)cc(=O)oc3c2C1
  KSHV LANA nucl: 0.55; Ab BasE inh: 1.4

Structure: CCCN(CCC)S(=O)(=O)c1ccc(CC)cc1
  KSHV LANA nucl: -0.75; Ab BasE inh: 0.2

Structure: Cc1nc2c(cc1C(=O)N/N=C/c1c[nH]c3ccccc13)c(=O)n(C)c(=O)n2C
  KSHV LANA nucl: -0.42; Ab BasE inh: -0.6

# Copied from the list:
# Ab BasE inh with `O=C1Cc2cc(C(=O)CSc3nnc(C4CC4)n3-c3ccccc3)ccc2N1` : -0.4
# Ab BasE inh with `Nc1cc(=O)[nH]c(SCC(=O)Nc2ccccc2)n1` : 0.6

# Remaining list, next part
SMILES	KSHV LANA nucl	Ab BasE inh
NS(=O)(=O)c1ccc(N2CCCC2c2ccc3c(c2)OCCCO3)nc1 (stereo not given)	nt	1.5
O=C1C[C@H]2[C@H](CO)[C@@H](OC(=O)c3ccc(-c4ccccc4)cc3)C[C@H]2O1	-0.37	-4.4
Cc1nccn1CC(=O)N/N=C/c1cccn1C	0.57	-1.5
CC(=O)Nc1ccc(S(=O)(=O)N(C)CC(=O)OCc2c(C)noc2C)cc1	nt	0.4
CCn1c(=S)[nH]c2ccc(Br)cc2c1=O	-0.59	0.7
CN1C(=O)/C(=C/c2ccc(C(=O)OCCN3CCOCC3)cc2)SC1=S	1.1	0.3
CCOC(=O)c1c(C)oc(NC(=O)CSc2nc(Cc3ccccc3)c(C)[nH]2)c1C(=O)OCC	nt	1.2
CCNC(=O)C12CCC(C)(C(=O)O1)C2(C)C (stereo not given)	-0.52	-0.5
CCCNc1nc2ccccc2n2cnnc12	-0.41	3.4
CNC(=O)NC(=O)C(C)Oc1ccc(NC(=O)c2ccccc2OC)cc1 (stereo not given)	nt	-1.0
CN1CCN(NC(=O)c2ccccc2Nc2ccc(SC(F)F)cc2)CC1	nt	0.6
N#C/C(=C\Nc1ccccc1O)c1nc2ccccc2o1	0.31	-2.1
c1ccc(SCc2cc(-c3ccccc3)no2)cc1	-0.08	nt
CCC(=O)N1N=C(c2ccco2)CC1c1cn(-c2ccccc2)nc1-c1ccc(OC)cc1 (stereo not given)	0.62	-4.3
CCC(=O)NC(Nc1cc(C)ccn1)(C(F)(F)F)C(F)(F)F	-0.26	-0.4
CCCCCCn1c(=S)[nH]c2ccccc2c1=O	nt	1.4
CCN(CC)CCCn1c(SCc2nc3sc4c(c3c(=O)[nH]2)CCC4)nc2ccccc2c1=O	nt	-4.5
CC(C(=O)Nc1ccc(S(=O)(=O)N2CCCC2)cc1)N(C)Cc1ccc(F)cc1 (stereo not given)	nt	0.5
COc1ccc(C2=NN(C(=O)c3cccs3)C(c3cc4ccccc4nc3Cl)C2)cc1 (stereo not given)	nt	1.1
O=C(COC(=O)C1CC(=O)N(Cc2ccco2)C1)Nc1cccc(C(=O)Nc2cccc(C(F)(F)F)c2)c1 (stereo not given)	nt	0.6
COc1ccc(N2CC(NS(C)(=O)=O)CC2=O)cc1 (stereo not given)	-0.053	1.7
CC1CCCCN1C(=O)CCc1nc2ccccc2n1-c1ccccc1 (stereo not given)	nt	2.4
CN(C)c1ccc(C(O)C(=O)c2ccccc2)cc1 (stereo not given)	nt	7.6
CCCCS(=O)(=O)N1CCc2ccccc2C1	-1.1	2.0
O=C(NCCCn1ccnc1)c1cccc(S(=O)(=O)Nc2ccccc2F)c1	nt	1.9
CC(NS(C)(=O)=O)c1nc(-c2ccccc2)no1 (stereo not given)	0.23	1.6
O=C(Nc1ccc(Cl)cc1)c1csnn1	-0.43	-0.3
Cc1ccc(C(=O)c2nccn2C)cc1C	nt	0.3
C=C(C)CSc1nnc(-c2ccc(C(C)(C)C)cc2)o1	nt	0.8
CC(=O)Nc1n[nH]c(-c2ccc(C)cc2)c1C	-0.39	1.9
CC(Sc1nnc(C(F)(F)F)n1N)C(=O)N(C)C1CCCCC1 (stereo not given)	nt	0.5
CC1CCCCN1C(=O)CCNC(=O)Cn1cnc2ccccc2c1=O (stereo not given)	0.44	1.3
O=C(NC(=S)N1CCN(c2ccccc2O)CC1)C12CC3CC(CC(C3)C1)C2	nt	1.2
CSc1nc(N)c(C#N)c(Cc2ccccc2)c1C#N	nt	-2.3
CCOC(=O)N1CCN(C(=O)CN(Cc2ccc(F)cc2)S(=O)(=O)c2ccc(C)cc2)CC1	-0.56	0.6
O=C(CNC(=O)C1CCCCC1)Nc1ccccc1N1CCOCC1	nt	2.1
O=C(O)C1CCN(C(=O)OCC2c3ccccc3-c3ccccc32)CC1	nt	0.8
O=C(Nc1cccc(F)c1)Nc1ccon1	0.46	-0.7
CN1C(=O)CC(C(=O)O)SC1=Nc1cccc(C(F)(F)F)c1 (stereo not given)	-0.22	2.2
O=C(c1ccco1)N1CCN(Cc2nc3ccccc3[nH]2)CC1	nt	0.1
C=CCNC(=O)c1cc2sccc2n1Cc1ccccc1	-0.37	-1.2
O=C1CCCC(O)=C1C=Nc1ccc(Cl)c(Cl)c1	0.62	nt
COc1ccc(-c2nnc(SCC(=O)NC(N)=O)n2C2CCCCC2C)cc1 (stereo not given)	nt	0.9
CC(=O)N(Cc1cc2ccccc2[nH]c1=O)c1ccccc1	nt	4.7
COc1ccc(CC(=O)c2ccc(OC)cc2O)cc1	0.0085	1.1
O=C(CN1C(=O)/C(=C\c2ccccc2F)Oc2ccccc21)NC1CC1	2.1	-3.1
CC(C)OC(=O)CSc1nnc(-c2ccc(O)cc2)o1	-1.2	-2.2
COc1cccc(C(N)=O)c1O	nt	2.0
O=C(c1ccco1)N1CCN(C2CC(=O)N(c3ccc(F)c(Cl)c3)C2=O)CC1 (stereo not given)	0.99	-0.7
Cc1cc(Cl)ccc1N=C(N)NN	nt	0.8
COc1ccc(NC(=O)CCSc2ccc3ccccc3n2)cc1	nt	1.3
CCN(CC)CCCCCCCCOC(=O)c1cc(OC)c(OC)c(OC)c1	-0.055	-3.5
COc1cccc(N(C)C(=O)c2cccc(I)c2)n1	nt	3.1
COc1ccc(-n2nc(C(=O)NCC(=O)N3CCOCC3)c3ccccc3c2=O)cc1	-1.1	-0.5
COc1cc(OC)c(NC(=O)Cn2cnc3onc(-c4ccc(F)cc4)c3c2=O)cc1Cl	nt	-0.2
CSc1ccccc1C(=O)NC1CC1	nt	0.2
Cc1cc(C(=O)Cn2cc(S(=O)(=O)N(C)C)ccc2=O)c(C)n1C1CCS(=O)(=O)C1 (stereo not given)	nt	0.0
CCN(CC)S(=O)(=O)c1cccc(-n2sc3ccccc3c2=O)c1	nt	-5.7
O=C(C1CCCC1)N(CC1CCCO1)c1nc2ccccc2s1 (stereo not given)	nt	-1.6
COc1cccc(/C=N/NC(=O)CN2CC(c3ccccc3)CC2=O)c1OC (stereo not given)	0.95	-0.3

# Carrying on.
# Order of results: KSHV LANA nucl, Ab BasE inh
COc1ccc(C2C(C(=O)N3CCC(C)CC3)c3ccccc3C(=O)N2C)cc1 (stereo not given)
→ -0.11, 1.4
O=C(CSc1nc(=O)n(Cc2ccncc2)c2c1CCCC2)Nc1ccccc1
→ 0.55, -1.3
Cc1ccc(CN(C)C(=O)c2ccc(-c3ccccc3)cc2)o1
→ nt, 0.8
CC(N)(Cc1cccc(O)c1)C(=O)O (stereo not given)
→ nt, -0.2
C/C=N/NC(=O)CSc1nc2ccccc2s1
→ 0.59, 1.0
CC(C)(C)C(=O)Nc1c(Cl)sc2nccc(=O)n12
→ nt, 2.2
CCc1nnc2c(-n3nc(C)cc3C)nc3ccccc3n12
→ -0.45, 2.0
CC1CSC(N(C(=O)/C=C/c2cn(CCC#N)c3ccccc23)c2ccc(Cl)cc2)=N1 (stereo not given)
→ nt, 3.0
Cc1cc(C)nc(NCC(O)COc2ccccc2C)n1 (stereo not given)
→ 0.57, -1.3
COc1cc(OC)cc(-c2nc3c4ccccc4[nH]c(=O)n3n2)c1
→ -0.45, 1.0
N#Cc1ccc(-c2csc(-c3ccc(C4SCCS4)cc3)n2)cc1
→ nt, -1.1
COc1ccc(OCC(=O)N2CCc3ccccc32)cc1
→ 1.7, 1.6
COc1cc(N)c(C(=O)c2nccc3cc(OC)c(OC)cc23)cc1OC
→ 0.57, -3.3
O=C1Cn2c(nc3ccccc32)N1c1cccc(C(F)(F)F)c1
→ 2, -0.6
O=C(Oc1cccc(OC(=O)c2ccccc2F)c1)c1ccccc1F
→ nt, -4.3
COc1cc2nc(COC(=O)c3ccco3)n(CC#N)c(=O)c2cc1OC
→ nt, 1.9
CC(=O)N1CCN(C2c3cccc4cccc(c34)C2NS(=O)(=O)c2ccc(Cl)cc2)CC1 (stereo not given)
→ nt, -3.3
CC(=O)ON(Cc1c(C)no[n+]1[O-])Cc1c(C)no[n+]1[O-]
→ nt, -1.9
c1ccc(CSc2nccc(-c3ccc4c(c3)CCO4)n2)cc1
→ nt, 0.7
CCCCCCc1c(O)nc(SCC(=O)O)[nH]c1=O
→ -0.26, 3.5
Cc1cc(C)cc(NC(=O)CC(NCc2cccnc2)C(=O)O)c1 (stereo not given)
→ nt, -1.5
CCOC(=O)c1cnc2scnn2c1=O
→ nt, -1.8
O=C(c1ccc(-c2ccc(F)cc2)o1)N1CCCN(S(=O)(=O)c2ccc(F)cc2)CC1
→ nt, -0.2
CCOC(=O)Cc1cc(=O)n(-c2nc3ccccc3s2)[nH]1
→ nt, -2.1
COc1ccc(N2CCN(CCNC(=O)c3ccc4nc5ccccc5c(=O)n4c3)CC2)cc1
→ -0.4, 0.7
CC(=O)Nc1ccc(NC(=O)C2CCN(c3ccc(C(F)(F)F)cn3)CC2)cc1
→ nt, -1.3
O=C(Nn1cnnc1)c1ccccc1CCc1ccccc1
→ -1.1, 2.2
CCC(=O)N1CCN(c2nc3c(C)c(Cl)ccc3s2)CC1
→ -0.59, 0.8
O=C1c2cccnc2C(=O)N1c1nccs1
→ 0.0015, 5.6
COc1cccc(CNS(=O)(=O)c2ccc3c(c2)oc(=O)n3C)c1
→ -0.5, 1.9
O=c1[nH][nH]c(=S)n1C1CC1
→ nt, -1.6&2.4
O=S(=O)(c1cc(Cl)ccc1Cl)N1CCCC1
→ 0.75, -0.9
CCN(CC)C(C)C(=O)Nc1c(C)cccc1C (stereo not given)
→ 0.89, -2.6
O=c1ccc(-c2ccc(S(=O)(=O)N(CCN3CCOCC3)Cc3ccco3)s2)n[nH]1
→ 0.24, 1.0
CCCCc1ccc(NC(=O)CSCC(N)=O)cc1
→ 1.4, -3.0
CCOc1ccccc1C(=O)NCc1cn2ccsc2n1
→ -0.46, -0.8
O=C1c2ccccc2C(F)(F)c2c(F)cccc21
→ 0.089, 0.4
CNC(=O)c1c(NC(=O)C2=COCCO2)sc(C)c1C
→ 0.87, -0.8
O=C1OC(Nc2ccccc2C(F)(F)F)c2ccccc21 (stereo not given)
→ -0.67, -1.5
O=C(Nc1cccc(-c2nc3ccccc3o2)c1)c1cccc(OCc2ccccc2)c1
→ nt, -2.0
O=C(NC(=S)Nc1ccc(N2CCOCC2)cc1)c1ccccc1
→ -0.5, 1.2
C=CCNc1nc(N)c(C(=O)c2ccc(Cl)s2)s1
→ -1.1, -0.4
